Source: PubChem (National Center for Advancing Translational Sciences (NCATS))
Menin-MLL FL inh – inhibitors of human menin-MLL interaction, wild-type MLL peptide; Fluorescence polarization, fluorescein-MLL peptide displacement from menin; FP activity change, % at 61.4 µM; 290,000 tested, under 10 active; inconclusive = falling polarisation curve, or a change in total fluorescence; inactive = total fluorescence flat and polarisation flat or rising; no compound was filed as active; the % refers to the polarisation; negative = inhibition;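 note: % of control where 0% means no effect; inhibitors lower the polarisation; unlabelled MLL peptide was the positive control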
TRPML1 ag – agonists of human TRPML1 channel; Q9GZU1; TRPML1-expressing cells, Ca2+ dye fluorescence, FDSS; host cell line not named in the record; reference of the full effect not given here; activation, % (no concentration beside the values); 0.12% of 410,000 active; AID 624414; in the data active = activation above about 50%; inconclusive = about 30% to 50%; inactive = below about 30%; note: 0% is about no effect; the text of the record puts the active cut at 80%
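Kinetic FDSS Ca2+ read in Tet-induced TRPML1-DL cells (ABD Ca8 dye plus quencher, 45-90 min RT loading): baseline, then compound, then 110 s agonist window; EC80 agonist 54-4 at 4uM final added afterwards for a 110 s antagonist window.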
TRPV1 potentiator – human TRPV1 potentiation | AID 540277 | potentiation, % at 8.33 µM | TRPV1-expressing cells, Fluo-8 calcium influx, capsaicin EC20 potentiation; host cell line not named in the record; control for the full effect not named in the record | 0.02% of 320,000 active | Q8NER1; active means potentiation above 80%; inconclusive means 30% to 80%; inactive means below 30%; note: 0% is about no effect
Target sequence (Q8NER1 whole entry, looked up): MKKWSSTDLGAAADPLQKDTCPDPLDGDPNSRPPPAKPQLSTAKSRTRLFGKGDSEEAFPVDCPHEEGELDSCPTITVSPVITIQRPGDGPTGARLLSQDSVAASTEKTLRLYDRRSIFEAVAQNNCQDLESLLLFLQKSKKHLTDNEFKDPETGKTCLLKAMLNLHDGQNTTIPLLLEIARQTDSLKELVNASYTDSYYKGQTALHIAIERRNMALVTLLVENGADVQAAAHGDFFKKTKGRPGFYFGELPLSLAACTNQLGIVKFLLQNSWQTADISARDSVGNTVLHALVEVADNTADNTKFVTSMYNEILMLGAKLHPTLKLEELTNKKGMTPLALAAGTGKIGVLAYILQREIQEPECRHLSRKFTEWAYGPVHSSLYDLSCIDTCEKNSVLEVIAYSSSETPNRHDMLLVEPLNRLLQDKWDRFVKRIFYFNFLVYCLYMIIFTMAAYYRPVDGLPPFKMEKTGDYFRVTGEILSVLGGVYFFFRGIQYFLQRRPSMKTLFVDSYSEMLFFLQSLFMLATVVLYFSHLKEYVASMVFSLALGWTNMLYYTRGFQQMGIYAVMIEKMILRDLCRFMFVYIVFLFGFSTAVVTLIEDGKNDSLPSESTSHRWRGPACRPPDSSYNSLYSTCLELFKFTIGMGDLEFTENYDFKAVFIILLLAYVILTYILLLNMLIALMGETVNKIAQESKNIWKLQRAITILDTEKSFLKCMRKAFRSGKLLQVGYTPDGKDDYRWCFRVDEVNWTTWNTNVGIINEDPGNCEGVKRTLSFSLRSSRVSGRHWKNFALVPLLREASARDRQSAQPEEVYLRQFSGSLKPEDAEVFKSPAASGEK
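Cells expressing TRPV1 were dye-loaded with Fluo-8 and read kinetically: 10 s baseline, 3 min after compound (agonist portion), then 2 min after EC20 capsaicin (allosteric enhancer portion). Calcium-bound dye fluorescence at 480/520 nm.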
ClpP mod – qHTS Assay for Activators of ClpP | purified B. subtilis ClpP, FRET peptide cleavage, 20 min | 1.9% of 340,000 active | ATP-dependent Clp protease proteolytic subunit (Bacillus subtilis (strain 168)), P80244 | Potency, µM (titrated, usually from 57.5 µM), for inactives: top-dose activity change, negative = active; active = well fitted falling curve with a large enough effect; inconclusive = small, poorly fitted or top-dose-only effect; inactive = no such curve, though single readings can be large or run the other way; note: potency is the fitted concentration of half-maximal effect; the source files actives as falling curves though it sought activators and does not explain the sign; nearly all actives have a fitted effect of over 65% in size; many hits overshoot -100%
Target sequence (P80244 whole entry, looked up): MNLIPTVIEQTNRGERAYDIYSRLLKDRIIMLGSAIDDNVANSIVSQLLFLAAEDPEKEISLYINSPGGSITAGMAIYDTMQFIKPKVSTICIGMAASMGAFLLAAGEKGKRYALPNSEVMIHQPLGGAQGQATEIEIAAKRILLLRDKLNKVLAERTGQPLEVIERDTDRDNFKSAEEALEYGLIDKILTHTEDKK
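Purified B. subtilis ClpP, 10 microg/mL final in Tris/HCl pH8 with KCl, BSA, glycerol and Tween-20, cleaved an Abz/nitrotyrosine-quenched decapeptide. Fluorescence (ex 320, em 430) was read at 0 and 20 min at room temperature. Delta was normalized to 5.8 microM ADEP and DMSO/no-enzyme controls.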
PINK1 modulator – changes PINK1 expression. PINK1 immunofluorescence, high-content cytometry, 24 h. Potency, µM (titrated, usually from 76.6 µM), without a hit: at the top dose activation (PINK1 increase), usual class: activators. 0.2% of 410,000 active. AID 624263; active = well fitted activation curve with a large enough effect; inconclusive = small, poorly fitted or top-dose-only effect; inactive = flat fitted curve, though single readings scatter; cell line not stated here;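 note: potency is the fitted concentration of half-maximal effect; % of control where 0% means no effect; nearly all actives have a fitted effect of over 65% in size; a mitochondrial uncoupler was the plate control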
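Cells are seeded, rested 12 hours, then given compound at five concentrations or DMSO for 24 hours. After fixation, blocking and antibody staining, PINK1 amount and mitochondrial localization are scored; CCCP serves as control.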
TRPML1 inh – inhibitors of human TRPML1 channel; TRPML1-inducible cells, Ca2+ dye fluorescence, FDSS; stronger effect = lower value; inhibition of EC80 agonist-evoked calcium signal; activity change, negative = inhibition, % (no concentration beside the values); 0.02% of 390,000 active; AID 624415; in the data active means activity change below about -50%; inconclusive means about -30% to -50%; inactive means above about -30%;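 note: stimulus is agonist 54-4 at its EC80 concentration; % is set by controls: 0 for no effect and ±100 for the full control effect; compound concentration not given in the record; the text of the record puts the active cut at -80%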
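Tet-induced TRPML1-DL cells loaded with Ca8 no-wash calcium dye were read kinetically on FDSS. Compound addition was followed by EC80 agonist 54-4 (4 uM final); inhibition was read over 110 s.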
Sfp PPTase inh – Sfp phosphopantetheinyl transferase inhibition. AID 1490. Q9F4F7. Potency, µM, inactives show max response, negative = inhibition, hits mostly inhibitors. Biochemical Sfp PPTase activity, qHTS. 3.5% of 310,000 active; active = well fitted inhibition curve with a large enough effect; inconclusive = small, poorly fitted or top-dose-only effect, or another doubt; inactive = no such curve, though single readings can be large or run the other way;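 note: the enzyme is Sfp with the accession as filed and its product quenches rhodamine fluorescence; potency is the fitted concentration of half-maximal effect; 0% = enzyme reaction without inhibitor and -100% = no enzyme wells; top concentration of the series not given in the record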
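With Hepes-Na pH 7.6 buffer containing 10 mM MgCl2, Sfp (15 nM) modified BHQ-2-YbbR (12.5 uM) using rhodamine-CoA (5 uM). Two reads 30 minutes apart at 525/598 nm yielded each well's rate.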
An asterisk follows results filed as active; ? = inconclusive; . = not tested or not shown; [ ] = another dose, or the depositor's remark. No enrichment for hits; overall some 4.4% were active at least once.

Structure	Sfp PPTase inh	TRPV1 potentiator	Menin-MLL FL inh	TRPML1 inh	PINK1 modulator	ClpP mod	TRPML1 ag
CCC1CN(C(=O)N2CCC(C(=O)NCCCc3ccccc3)CC2)c2ccccc2O1 (configuration not stated)	.	.	.	-3.3	1.4%	0.1%	1.9
CCC(C)(C)NC(=O)Cn1c(-c2ccc(C)cc2)noc1=O	9.8%	11.9	-1.3	1.0	-0.9%	.	1.0
COC(=O)c1cc(CNC(=O)c2ccc(N3CCCC3)c([N+](=O)[O-])c2)ccc1OC	-1.7%	-12.0	1.7	-7.1	0.9%	1.0%	-0.3
Cc1cc(OCc2cc3c(cc2Cl)OCO3)c2c(C)cc(=O)oc2c1	-4.6%	15.5	2.0	-3.0	8.7%	-12.8%	0.9
CCOc1cc2c(cc1C=O)OC(C)C2 (configuration not stated)	15.0%	6.8	2.4	27.1	-0.1%	-0.6%	0.2
COCc1ccc(C(=O)N(C)CC2CCCN(CCc3ccc(OC)cc3)C2)o1 (configuration not stated)	17.8%	-1.0	-0.1	18.3	-0.5%	0.1%	-0.2
Cc1cccc(NC(=O)c2cc(N3CCOCC3)nc3ccccc23)c1	-0.9%	-18.2	-2.2	-6.2	0.5%	88.2%	0.6
COc1cc(C)c(CN2CCN(C(C)C(=O)NC(C)c3ccccc3)CC2)cc1OC (configuration not stated)	-7.8%	8.2	0.4	9.1	0.4%	.	1.5
Nc1ncnc2c1ccn2[C@H]1CN(Cc2ccc(Cl)cc2)C[C@@H](CO)O1	.	.	.	0.6	2.0%	1.3%	0.3
COc1ccc2cc(-c3ccccc3)ncc2c1	4.0%	?	2.3	-5.1	1.2%	4.6%	-0.1
CN1CCc2nc3sc(C(=O)C45CC6CC(CC(C6)C4)C5)c(N)c3cc2C1	16.3%	17.5	?	0.8	-3.2%	-5.8%	0.1
CC1Cc2cc(S(=O)(=O)N3CCC(C(=O)N4CCN(c5ccccc5F)CC4)CC3)ccc2N1C(=O)C1CC1 (configuration not stated)	14.5%	7.2	.	-15.9	1.0%	-2.7%	-0.2
NC(=O)c1ccccc1NCC(=O)c1ccc(F)cc1	-13.8%	-9.5	-0.4	10.1	-0.3%	.	2.1
COc1ccc(S(=O)(=O)n2nc(C)c(S(=O)(=O)N3CCCCCC3)c2C)cc1C	.	.	.	0.6	0.2%	-0.5%	-0.6
Cc1cccc(NC(=O)CN(CC2CCCO2)C(=O)c2cc(S(=O)(=O)N(C)C)ccc2F)c1C (configuration not stated)	.	.	.	-17.5	2.5%	.	0.8
Cc1ccn(CCC(=O)Nc2ccc3c(c2)OCO3)n1	9.6%	0.7	.	-3.2	0.0%	-1.1%	0.4
O=C(Nc1ccccc1)N1CCN(c2ccc(F)cc2)CC1	-20.3%	-0.3	-3.8	-7.0	-1.5%	-2.4%	1.5
O=C(COc1ccc(Br)cc1)c1ccc2c(c1)CCCC2	-5.3%	-1.1	-5.0	7.2	3.6%	-1.9%	0.4
O=[N+]([O-])c1ccc2nc(NS(=O)(=O)c3ccc(F)cc3)sc2c1	-2.8%	2.6	4.9	-10.8	21.5%	.	-0.3
Cc1ccc([N+](=O)[O-])cc1-c1ccc(/C=N\n2nnnc2N)o1	6.3%	-6.1	3.8	-3.7	1.5%	2.0%	-1.6
COC(=O)c1ccc(NC(=O)C(=O)NCC2CCCO2)cc1 (configuration not stated)	4.1%	-24.3	8.0	-4.8	0.8%	-0.2%	1.5
O=C(Nc1ccc2c(c1)OCCO2)c1ccc(Cl)cc1Cl	12.3%	-20.6	-9.5	3.2	1.6%	.	0.4
CS(=O)(=O)N(CC(=O)NCc1ccccn1)Cc1ccc(Cl)cc1	1.7%	-8.1	-1.0	1.2	1.3%	1.1%	-0.1
CCCc1cc(CCC)n2nc(N)nc2n1	.	.	.	31.8	-1.1%	4.4%	-0.3
Cn1nc(C(F)(F)F)cc1C(=O)NC1CCCCCC1	0.2%	-11.4	-0.4	12.8	9.6%[38.3 µM]	-0.1%	0.0
CCOc1ccc(-c2c(C(=O)N/N=C/c3ccc(C)s3)nnn2-c2nonc2N)cc1	5.2%	-11.0	1.4	-3.6	-0.9%	-20.3%	-0.5
O=C(COC(=O)c1ccc(O)cc1)Nc1ccc(Cl)cc1	0.0%	-19.3	6.9	3.8	0.1%	.	0.8
CC(=O)c1cc2c(cc1NC(=O)c1ccc(Cl)cc1)OCCO2	2.1%	-8.2	-1.4	0.0	5.3%	-0.4%	0.5
NS(=O)(=O)c1ccc(NC(=O)COC(=O)c2cnc(Cl)c(Cl)c2)cc1	5.8%	-6.2	6.6	-5.4	1.6%	.	1.0
Cc1nn(Cc2ccccc2)c2c1C(c1cccc(Cl)c1)C(C#N)=C(N)O2 (configuration not stated)	9.6%	10.0	3.5	15.6	3.1%	-2.5%	-0.3
Cc1ccc(NC(=O)c2ccc(S(=O)(=O)N3CCOCC3)cc2)c(C)c1	22.5%	-10.1	1.0	30.4	0.6%	.	0.2
CC1=CN(S(=O)(=O)c2ccc(C)cc2)C[C@@H]2[C@H]3CC[C@H](C3)[C@H]12	.	.	.	-14.1	1.2%	-0.1%	26.7
CCN(CC)CCCNC(=O)C(C)Sc1nc(-c2ccccc2)cc(C(F)(F)F)n1 (configuration not stated)	12.4%	16.7	-0.1	5.0	-1.6%	-4.0%	-0.8
CC(OC(=O)CN1C(=O)c2ccccc2C1=O)C(=O)NCc1ccccc1 (configuration not stated)	8.6%	-9.8	.	-5.3	7.4%	-5.7%	0.2
CC(=O)C1=C(C)N(Cc2ccco2)C(=O)C1(NC(=O)C1CCCCC1)C(F)(F)F (configuration not stated)	?	-3.3	0.8	31.3	-0.4%[38.3 µM]	-0.9%	-0.6
COC(=O)c1c(NC(=O)CN2CCCC(C)C2)c2c(C)cccc2n1C (configuration not stated)	-4.4%	-30.5	0.5	-13.4	1.7%	-15.1%	0.3
COc1ccc(CN2CCSCC2)c(C)c1C	-6.7%	12.0	7.0	20.7	3.5%	-0.6%	0.9
CC(C)(C)C1CCC(OC(=O)CN2CCCCC2)CC1 (configuration not stated)	12.1%	-2.7	-0.1	8.7	10.2%	.	-0.3
CC(C)NS(=O)(=O)c1ccc(OCC(=O)Nc2ccc(F)cc2)cc1	9.6%	-2.2	2.1	3.5	0.7%	.	-0.1
CCN(Cc1ccccc1)C(c1cccs1)c1nnnn1C1CCCCC1 (configuration not stated)	2.9%	-5.8	0.3	2.7	17.4%[38.3 µM]	0.6%	1.8
O=C1OC(CCl)CN1Cc1c(Cl)cccc1Cl (configuration not stated)	.	.	.	-12.8	-1.1%	.	1.6
c1ccc(-c2noc(-c3cccs3)n2)nc1	-14.5%	-4.0	-0.7	11.0	.	-7.1%	0.3
COc1ccc(OCC(O)Cn2c(=N)n(Cc3ccccc3)c3ccccc32)cc1 (configuration not stated)	2.5%	-9.9	-0.8	76.5	27.9%[38.3 µM]	3.9%	1.4
O=C(Nc1cccc(C(F)(F)F)c1)c1cc(-c2ccc(F)cc2)on1	-1.3%	-2.6	-0.2	11.8	8.7%	3.5%	7.6
O=C(CSc1nc2ccccc2s1)NCCOc1ccc(Cl)cc1	-10.2%	21.2	1.1	-4.1	3.0%	0.9%	1.7
Cc1cccc(C)c1OCCn1c(C2CC(=O)N(c3cccc(Cl)c3)C2)nc2ccccc21 (configuration not stated)	.	.	.	6.3	1.6%	-9.2%	0.2
Cc1ccc(N2C(=O)c3ccc(C(=O)N4CCOCC4)cc3C2=O)cc1C	3.4%	-10.9	2.3	35.3	-0.4%	-2.1%	1.3
CC1CN(C(NC(=O)C(C)(C)C)C(Cl)(Cl)Cl)CC(C)O1 (configuration not stated)	4.3%	8.7	3.1	-7.3	-2.1%	0.3%	2.4
O=C(Nc1cc(S(=O)(=O)N2CCOCC2)ccc1O)c1ccc(NS(=O)(=O)c2ccc(Cl)s2)cc1	1.7%	14.2	-1.1	16.1	1.2%	-1.5%	1.6
Cc1cnc(C(=O)OCC(=O)NC(C)CCc2ccccc2)cn1 (configuration not stated)	23.3%	12.3	0.6	0.1	3.7%	.	-0.4
CCOc1ncccc1C(=O)NCCc1ccc(S(N)(=O)=O)cc1	24.7%	2.3	3.2	3.2	0.4%	.	-0.4
CC(C)CCC(=O)N1CCOC1=O	15.2%	14.4	-4.6	9.7	1.3%	2.2%	-0.6
COc1ccc(S(=O)(=O)N2CCCC(C(=O)NCc3ccccn3)C2)cc1 (configuration not stated)	5.2%	2.8	-1.1	10.2	0.4%	-0.3%	0.6
CC1(c2nnc(Cc3ccccc3)o2)CC(c2ccc([N+](=O)[O-])cc2)=NO1 (configuration not stated)	-2.4%	-14.2	0.2	-0.3	0.2%	-0.3%	-0.3
COc1ccccc1CNC(=O)Cn1ncn2c(cc3sccc32)c1=O	.	.	.	4.6	1.8%	-8.9%	-0.3
COC(=O)c1[nH]c2cc(OC)c(OC)cc2c1NC(=O)Oc1ccccc1	44.7µM*	6.3	5.4	-3.5	-3.2%	31.6µM*	0.2
O=C(CSCc1ccccc1Cl)N1CCN(c2ccc(Cl)cc2)CC1	.	.	.	7.4	1.3%	-0.2%	0.0
O=S(=O)(CCN1CCCCC1)CCS(=O)(=O)CCN1CCCCC1	.	.	.	-4.7	2.2%	.	0.4
